Source: PubChem BioAssay (PCMD)
Biofilm kill mix = mixture kills Candida albicans biofilm cells | C. albicans biofilm persisters + clotrimazole, fluorescence viability; primary screen in compound mixtures of four per well | inhibition, % at 7.6 µM | hit rate 0.02% among 120,000 | AID 1242;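 active means inhibition above 30.3% in the primary screen of four-compound pools, then above 30% when the compound was retested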;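 further: compounds exposed to preformed 24 h biofilms for 48 h; the number belongs to the whole pool; some results filed as inactive read as strong as hits; inactives centre near 12; 0% = biofilm with clotrimazole alone and 100% = kill control; retested singly at about 60 µM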
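Test system: C. albicans biofilms. Buffer or medium: RPMI/MOPS medium, pH 7.0. Timing: 48 h compound exposure at 37 °C. Technique: Alamar Blue fluorescence. Evaluation: percent inhibition of biofilm viability.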
* hit, by the source's call. Not all compounds are listed; the hit share may differ from the screen's.

SMILES	Biofilm kill mix
NC1=NC(=Nc2ccc(S(N)(=O)=O)cc2)c2ccccc21	16.9
CCc1ccc(S(=O)(=O)Nc2ccc(N3CCN(C)CC3)cc2)cc1	16.3
CC(C)N1CCN(Cc2ccsc2)CC1CCO (stereo unspecified)	5.5
CCC(C)NC(=O)CC(C)C (stereo unspecified)	7.0
CCOC(=O)N1CCC(N2CCN(CCC(C)C)C(CCO)C2)CC1 (stereo unspecified)	15.1
CCOC(=O)c1cnc(COc2ccc(OC)cc2)[nH]c1=O	20.6
CCCc1cc(=O)[nH]c(SCc2nc3ccc([N+](=O)[O-])cc3[nH]2)n1	13.6
Cc1ccc(C(C(=O)Nc2ccc3c(c2)OCO3)N(C)C(=O)Cc2c[nH]c3ccccc23)cc1 (stereo unspecified)	8.3
COc1ccc(CNC(=O)CCCn2nc(C)c([N+](=O)[O-])c2C)cc1	8.3
CCC(C)C(NC(=O)c1ccccc1NC(=O)c1ccco1)C(=O)NNC(=O)c1ccncc1 (stereo unspecified)	21.9
O=C(c1cccs1)N1CCN(S(=O)(=O)c2ccc(F)cc2)CC1	-0.7
O=C(Nc1cc(SCCO)cc([N+](=O)[O-])c1)c1ccco1	12.1
O=C(NNS(=O)(=O)c1ccccc1)C1CC(c2cccnc2)=NO1 (stereo unspecified)	0.1
CC(C)c1ccc(C(=O)NCCCN(C)C)cc1	16.5
O=C(NC1CCCCCCC1)c1cc(COc2ccc3ncccc3c2)on1	18.6

Brought forward from above: 2 compounds, followed by the next part.
SMILES	Biofilm kill mix
CC(C)c1ccc(C(=O)NCCCN(C)C)cc1	16.5
O=C(NC1CCCCCCC1)c1cc(COc2ccc3ncccc3c2)on1	18.6
Cc1ccc(-n2c(-c3ccccc3)cc(/C=N/NC(=O)CC#N)c2-c2ccccc2)cc1	-0.5
O=C(CNC(=S)N(Cc1ccccc1F)C1CCCCC1)NCC1CCCO1 (stereo unspecified)	7.3
O=C(COC(=O)C1CCCCC1)Nc1ccccc1OC(F)F	12.3
O=C(CCCN1C(=O)/C(=C\c2ccco2)SC1=S)Nc1cccc2ccccc12	3.4
O=C(C1CCN(c2ncnc3c2sc2cccc(F)c23)CC1)N1CCCC1	20.3
Cc1ccc(C=C2C(Cl)=C(Cl)C(Cl)=C2Cl)cc1	12.1
CCOc1ccc(N=C/C=C/c2ccccc2)c(O)c1	21.5
CC(=O)C1=C(O)C(=O)N(c2ccc(S(=O)(=O)Nc3nccs3)cc2)C1c1ccc([N+](=O)[O-])cc1 (stereo unspecified)	18.1
C#CCOCCOCCOCCNc1nc(N2CCN(C(=O)Cn3cc(CCCN=C(N)N)nn3)CC2)nc(N2CCN(C(=O)[C@H](C)n3cc(CCCN=C(N)N)nn3)CC2)n1	0.4
COc1ccc(-c2csc3ncnc(Nc4ccc(O)cc4)c23)cc1	-6.2
Cc1ccc(/C=N/n2c(-c3ccncc3)n[nH]c2=S)o1	2.1
COc1ccc(C(=O)C2CCCN(Cc3cn(C)nc3-c3ccccc3)C2)cc1F (stereo unspecified)	9.0
NC1=NC2(CCCCC2)N(c2ccc(F)cc2)C(N)=N1	13.2
COc1ccccc1NC1=Nc2cccc3cccc1c23	25.5
O=C(Cc1ccsc1)N1CCc2c([nH]c3ccccc23)C1c1ccccn1 (stereo unspecified)	10.4
C/C(=N\NC(=O)CSc1nc(C)cc(C)n1)c1ccc([N+](=O)[O-])cc1	13.8
Cc1ccc(NC(=S)N(CCN2CCCCC2)Cc2ccco2)cc1	-9.4
CN(CCC1CCCCO1)Cc1cn(C)nc1-c1ccc2c(c1)OCCO2 (stereo unspecified)	13.5
Nc1nc(-c2ccccc2)c(N=Nc2ccc(Cl)cc2)s1	7.4
O=C(c1ccc2c(c1)OCO2)N1CCOCC1	8.7
COc1ccc(N2C(S)=C(C#N)C(=O)NC2c2ccc(OC)c(OC)c2)cc1 (stereo unspecified)	20.7
CCc1cccc2c(C(=O)COC(=O)/C=C/c3ccc(O)c(OC)c3)c[nH]c12	2.4
CCC(C(=O)OCC(=O)Nc1cc(Cl)ccc1Cl)c1ccccc1 (stereo unspecified)	-3.1
Cc1ccc(C)c(NC(=S)NC(C)C(c2ccccc2)N2CCN(C)CC2)c1 (stereo unspecified)	7.4
COc1ccc(/C=N/OCC(=O)NC(c2ccccc2)c2ccccc2)c(OC)c1	15.8
O=C(NCCc1ccc([N+](=O)[O-])cc1)c1ccccc1	15.6
O=C(COC(=O)c1cccc([N+](=O)[O-])c1)NCc1cccs1	13.8
O=C(NCc1cccs1)C1CCN(S(=O)(=O)c2ccccc2F)CC1	21.4
C#Cc1ccc([C@@H]2C=C(C(=O)NCc3ccccc3)O[C@H](OCC)[C@H]2CCCO)cc1	18.7
O=S1(=O)CCN2N=C(C3CC3)SC2=N1	10.4
COCCNC(=O)Nc1ccc2c(c1)N(C)C(=O)c1ccccc1S2	17.6
CCOC(=O)C1CCN(C(=O)C(C)Sc2ccc(Cl)cc2)CC1 (stereo unspecified)	13.1
CC(=O)Nc1ccc(C(=O)n2nc(C)cc2C)cc1	12.1
Cc1ccccc1/C=N/N=C1/NC(=O)CCS1	14.8
CCNC(=O)Cn1cc(C(F)(F)F)cc(Cl)c1=O	14.9
COCCNC(=S)N=Nc1c(O)[nH]c2ccc([N+](=O)[O-])cc12	12.3
CCN(CC)CCCNC(=O)CN1C(=O)CSc2ccc(S(=O)(=O)N3CCOCC3)cc21	19.0
Cc1cccc(N2CC(c3nc4ccccc4[nH]3)CC2=O)c1 (stereo unspecified)	14.7
Cc1[nH]n(-c2ccccc2)c(=O)c1C(=O)c1cccc(F)c1	-0.3
CC(C)Cc1cc(C(=O)NCCCN2CCOCC2)no1	13.1
CC(C)CCSc1nnc(N)s1	21.0
CCOC(=O)c1cc(-c2ccccc2)sc1NC(=O)c1cc(OC)c(OC)c(OC)c1	4.2
OCCCN1CCN(CCCOc2ccccc2-c2ccccc2)CC1	8.1
OC(COC(c1ccc(Cl)cc1)c1ccc(Cl)cc1)CN1CCc2ccccc2C1 (stereo unspecified)	15.3
CCN(c1ccccc1)S(=O)(=O)c1ccc(Cl)c(NC(=O)COC(=O)c2ccc(Cl)c(N)c2)c1	5.8

In another format: results already given
structure | Biofilm kill mix
COCCNC(=O)Nc1ccc2c(c1)N(C)C(=O)c1ccccc1S2 | 17.6
CCOC(=O)C1CCN(C(=O)C(C)Sc2ccc(Cl)cc2)CC1 (stereo unspecified) | 13.1
CC(=O)Nc1ccc(C(=O)n2nc(C)cc2C)cc1 | 12.1

Continued:
SMILES	Biofilm kill mix
COCCN(C(=S)Nc1cccc(C)c1)C(C)c1cccnc1 (stereo unspecified)	11.0
Cc1ccc(CNC(=O)CN2C(C)CCCC2C)cc1 (stereo unspecified)	8.8
S=C(Nc1ccc(Cl)cc1)Nc1ccc2cn[nH]c2c1	14.9
CCc1ccc(/C=C2\SC(=S)N(CCC(=O)N3CCN(C)CC3)C2=O)cc1	11.2
Cc1cc(C)n(-c2cc(N3CCN(C(=O)c4cccc(F)c4)CC3)ccc2[N+](=O)[O-])n1	10.2
Cc1ccc(-c2nc(NC(=O)CSc3nnc4scc(-c5ccccc5)n34)ns2)cc1	9.8
CCOC(=O)C1(CCc2ccccc2)CCN(Cc2ccc(OC)cc2)CC1	-17.9
Cc1ccc(C(=O)Nc2ccc(Cl)cc2C(F)(F)F)c(Cl)c1	20.5
CSc1nnc(SCC#N)s1	0.1
O=C(O)CC(SCC(=O)NC1CCCc2ccccc21)C(=O)O (stereo unspecified)	13.1
Oc1cc(Br)ccc1C=Nc1ccc(N2CCCCC2)cc1	13.6
Cn1cnc(S(=O)(=O)Nc2ccc(OC(F)F)cc2)c1	15.6
COC(=O)C1CSC(c2ccc(Cl)cc2)N1C(=O)c1ccccc1 (stereo unspecified)	8.8
CC(=O)c1cc2c(cc1NC(=O)C1CC1)OCO2	9.1
CCN(CC)CCN(C)C(=O)c1ccc(OC2CCN(C(=O)C3CC3)CC2)cc1	5.2
CCC(C)C(Nc1ccc(C(=O)OC)cc1[N+](=O)[O-])C(=O)OC (stereo unspecified)	13.0
COc1cccc(-c2csc(N3CCN(C(=S)Nc4cccc(C)c4)CC3)n2)c1	1.1
COC(=O)Cc1ccc(NC(=S)NCCC(C)C)cc1	13.3
Oc1ccc(/C=N/N=C/c2ccc(O)cc2)cc1	6.0
COc1ccccc1CNC(=O)c1cc(C)nn1-c1ccccc1	16.6
CC(=O)NC(Cc1cc(C)ccc1C)C(=O)N1CCN(C(=O)c2ccc(Br)cc2)CC1 (stereo unspecified)	-1.2
COC(=O)c1cccc(NC(=S)Nc2cc(Cl)ccc2OC)c1	12.5
CCC1C/C(=C\c2cccnc2)C(=O)/C(=C/c2cccnc2)C1 (stereo unspecified)	15.3
c1ccc(C(c2nnnn2C2CCCC2)N2CCN(c3nc4ccccc4s3)CC2)cc1 (stereo unspecified)	5.7
CN(C)c1ncc(/C=C2/C(=O)NC(=S)N(C3CCCCC3)C2=O)cn1	6.8
CCc1onc(C)c1C(=O)O	13.7
Cc1nccn1CC(O)COc1ccccc1 (stereo unspecified)	3.6
Cc1cc(-c2n[nH]c(=S)n2/N=C/c2cccs2)n[nH]1	4.7
Cc1cccc(C(=O)Nc2sc3c(c2C(=O)O)CCC3)c1	18.0
O=C(NCCc1ccccc1)c1ccc2nccnc2c1	-2.8
COCCCNCC1C(Oc2ccc(Cl)cc2)C(=O)N1c1ccccc1C (stereo unspecified)	16.4
COc1ccc(OC)c(NC(=O)c2c(NC(=O)CCC(=O)O)sc3c2CCCCC3)c1	-8.7
O=C(CNC(=O)c1cccc(OC(F)F)c1)OCn1nnc2ccccc2c1=O	7.2
CC(C)n1c(Oc2ccc(F)cc2)nc2c1c(=O)n(C)c(=O)n2C	11.3
CCOc1ccc(NC(=O)C2CCCN(C(=O)Nc3ccccc3)C2)cc1 (stereo unspecified)	7.4
COC(=O)c1sccc1NC(=O)CC1C(=O)NCCN1C(=O)c1ccc(N(C)C)cc1 (stereo unspecified)	14.7
CCNC(=O)CON=C1c2ccccc2-c2ccccc21	8.4
COc1ccc(OC)c(CN(CCN2CCOCC2)C(=O)Nc2ccccc2)c1	8.8
Cc1ccc(-c2cn3cc(C)ccc3n2)cc1	12.2
CCN1/C(=C2/SC(=S)NC2=O)Sc2ccccc21	7.1
COC(=O)c1ccc(C2c3c(oc4cc(C)c(C)cc4c3=O)C(=O)N2CCCN(C)C)cc1 (stereo unspecified)	16.5
Cn1c(/C=N/Nc2nc3ccccc3[nH]2)nc2ccccc21	13.4
Cc1cc2c3c(c1)C(C)CC(C)(C)N3C(=O)C2=C(C#N)C#N (stereo unspecified)	31.0
COC(=O)c1cc(NC(=O)/C=C/c2ccccc2)ccc1O	15.6
O=c1ccc(-c2ccc([N+](=O)[O-])cc2)nn1-c1ccccc1	4.5

As a working copy, part of the list above.
SMILES	Biofilm kill mix
Cc1ccc(C=C2C(Cl)=C(Cl)C(Cl)=C2Cl)cc1	12.1
CCOc1ccc(N=C/C=C/c2ccccc2)c(O)c1	21.5

(more compounds)
SMILES	Biofilm kill mix
c1ccc(C2C/C(=N\N3CCOCC3)c3ccccc3O2)cc1 (stereo unspecified)	-3.4
CC12CCC(=O)N1C(C(=O)OCC(=O)Nc1cccc(Br)c1)CS2 (stereo unspecified)	10.2
O=C(CSCC(=O)Nc1cccc([N+](=O)[O-])c1)Nc1ccccc1	13.8
COC(=O)c1scc(C)c1NC(=O)CC1NCCNC1=O (stereo unspecified)	9.4
COC(=O)C1=C(C)NC(=O)/C1=C\N(C)C	15.7
Cc1cnc(NC(=O)c2cccc(S(=O)(=O)N3CC(C)OC(C)C3)c2)s1 (stereo unspecified)	14.9
CC(=O)/C(=N\Nc1ccc(C)cc1)Sc1nncn1C	11.9
Cc1ccc2c(c1)cc(CN(C(=O)N1CCOCC1)C1CCCC1)c1nnnn12	-4.2
COc1ccc(C(=O)NC(=S)Nc2cc(C)ccn2)cc1[N+](=O)[O-]	12.7
Cc1cccc(NC(=O)c2ccc(COc3ccc4ccccc4c3)o2)n1	15.6
Nc1c(C(=O)N/N=C/c2ccc(F)cc2)oc2nc(-c3ccccc3)cc(-c3ccco3)c12	19.6
Cc1cc(C)n2nc(-c3ccccc3)cc2n1	3.1
O=C(Nc1ccc(CN2CCCCC2)cc1)c1sc2ccccc2c1Cl	20.6
Cc1onc(-c2c(F)cccc2Cl)c1C(=O)NCCN1CCNC1=O	33.1
COc1ccc(C(=O)NCc2ccccn2)cc1[N+](=O)[O-]	4.2
CCCOCCc1nnc(N)s1	9.2
Cn1cc(C(=O)NC2C3CC4CC(C3)CC2C4)cn1 (stereo unspecified)	15.1
Cc1cc(C)n(CCNC(=O)c2cc(COc3ccc(F)cc3Cl)on2)n1	11.2
O=C(Nc1ccccc1N1CCN(C(=O)c2ccccc2)CC1)c1ccccc1Cl	16.8
COc1ccccc1N1C(=O)c2ccc(C(=O)Nc3nccs3)cc2C1=O	8.9
CCNC(=O)C(=O)Nc1ccc([N+](=O)[O-])cc1	14.4
CC(C)NCC(O)COc1ccc(Br)cc1 (stereo unspecified)	5.2
O=C(COC(=O)c1ccncc1)Nc1ccccc1	-5.0
O=C(CSC(=S)N1CCCCC1)c1ccccc1	16.3
CCC(C)Oc1ccc(/C=C/c2[nH]c(=O)[nH]c(=O)c2[N+](=O)[O-])cc1OC (stereo unspecified)	26.4
CCN(CC)CCCNC(=O)/C(=C\c1cccn1C)NC(=O)c1cccs1	4.5

Looked up one by one from the entries so far (two):
SMILES	Biofilm kill mix
CCC(C)Oc1ccc(/C=C/c2[nH]c(=O)[nH]c(=O)c2[N+](=O)[O-])cc1OC (stereo unspecified)	26.4
COc1ccccc1N1C(=O)c2ccc(C(=O)Nc3nccs3)cc2C1=O	8.9
